Sa growth 42C: inhibitors of Staphylococcus aureus growth at 42 °C | S. aureus RN4220 growth, OD600, 20 h; stronger effect = lower value | AID 720641 | relative growth, % (concentration not given with the values) | 170,000 compounds, 0.53% hits;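 active = growth at 42 °C up to 50% and 20 or more points under that at 30 °C, or under 10% at both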;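 note: 300 nL library stock went into each well; scaled to the means of positive and negative controls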
HCMV UL50-53 inh: inhibitors of HCMV UL50-UL53 nuclear egress complex interaction | HTRF UL50-UL53 interaction, normalized percent inhibition | inhibition, % (test concentration not listed) | 190,000 compounds, 0.15% hits;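 active = both replicates at 50% or more, plus weaker picks with an unusually low signal ratio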;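 note: stock transfer was 100 nL into about 20 µL; 0% = negative control wells and 100% = wells with untagged competitor protein; inactives centre near -12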
GIV-Gai inh: blocks GIV peptide binding to rat Galpha-i3 | P08753 | percent of control (FP), % (test concentration not listed) | Galpha-i3/FITC-GIV peptide fluorescence polarization, 90 min; stronger effect = lower value; scaled: aluminum fluoride 0%, vehicle 100% | AID 1224905 | 210,000 compounds, 0.42% hits;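 active = replicate mean at 85% of control or lower, very high polarization wells dropped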;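 note: wells of about 15 µL received 100 nL stock; the first replicate is given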
Target sequence (P08753 whole entry, looked up): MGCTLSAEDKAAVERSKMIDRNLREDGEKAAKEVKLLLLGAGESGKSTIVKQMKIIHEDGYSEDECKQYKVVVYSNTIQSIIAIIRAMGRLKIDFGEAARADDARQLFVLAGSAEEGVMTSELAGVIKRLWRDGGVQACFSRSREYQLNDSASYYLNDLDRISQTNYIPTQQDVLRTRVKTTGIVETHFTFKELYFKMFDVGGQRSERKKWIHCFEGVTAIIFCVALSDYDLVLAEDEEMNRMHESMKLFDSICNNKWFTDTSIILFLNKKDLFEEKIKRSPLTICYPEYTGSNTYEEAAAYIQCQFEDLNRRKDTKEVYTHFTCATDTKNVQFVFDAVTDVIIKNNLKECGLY
Sa growth 42C second temp: second read-out of Sa growth 42C, no call of its own (marks repeat the call); relative growth, %; measured here: growth at 30 °C;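 optical density after 20 h as mean of two plates; 100% = untreated growth and lower means inhibition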
The depositor's hits bear a star; . = no result given; & = joins results of further samples.

molecule	GIV-Gai inh	Sa growth 42C	Sa growth 42C second temp	HCMV UL50-53 inh
CN(C)/C=C1/C=C(c2ccccc2)SC1=S	98	35	52	.
O=c1nc(SCc2ccccc2)c2c(n1CCc1ccccc1)CCC2	106	.	.	-16
O=C(NC1CCCC1)C1CCCN1C(=O)Nc1ccccc1 (stereo not given)	96	88	90	4
Cc1ccc(C)c(-c2cc(-c3nc(-c4ccc5c(c4)OCO5)no3)[nH]n2)c1	111	.	.	8
Cc1c(S(=O)(=O)NCc2csc(-c3cccs3)n2)cnn1-c1ccccc1	104	100	90	-29
CCOc1ncccc1C(=O)Nc1ccc(-c2cn3c(n2)SCC3)cc1	103	96	67	-37
CCOc1ccc(CNC(=O)c2ccc3nc(Cc4ccc(OC)cc4)oc3c2)cc1OC	99	97	89	.
NC(=O)C1(NCCNC2(C(N)=O)CCCCC2)CCCCC1	.	82	94	-11
Cc1ccc2oc(=O)c3cc(C(=O)N(Cc4ccco4)CC4CCCO4)sc3c2c1 (stereo not given)	103	104	84	1
COc1cc(Br)cc2cc(C(=O)N3CCN(c4cc(C)ccc4C)CC3)c(=O)oc12	.	93	83	-6
CN(C)C(=O)c1ccc(OCC(F)(F)F)nc1	104	99	97	5
COc1ccc(CC(=O)N(Cc2nc3nc(C)cc(C)n3n2)c2ccc(C)cc2)cc1	97	.	.	-16
O=C(Nc1ccc2nc3n(c(=O)c2c1)CCCCC3)c1ccco1	100	79	68	4
Cc1c(C(=O)OCC(=O)c2cc(C)n(NC(=O)c3n[nH]c(=O)c4ccccc34)c2C)oc2ccc(Cl)cc12	.	91	75	-15
Cc1cccc(Cn2c(SCc3ccc(C(=O)NC4CCCC4)cc3)nc3ccncc32)c1	105	102	95	-7
CC(C)(C)C1(C)OC(=O)C(=Cc2ccc(Br)o2)C(=O)O1 (stereo not given)	.	101	87	-5
O=C(c1ncoc1-c1cccs1)N1CCOCC1	112	100	91	-44
Brc1ccc(CSc2nccn2Cc2ccccc2)cc1	.	71	54	-18
CS(=O)(=O)N1CCN(c2ccc(NC(=O)Nc3cccc(Cl)c3)cc2)CC1	110	118	100	-3
CCOC(=O)c1c(C)n(-c2ccccc2)c2c1cc(OC(=O)c1ccccc1Cl)c1ccccc12	102	.	.	-14

One compound at a time, from the list above.
NC(=O)C1(NCCNC2(C(N)=O)CCCCC2)CCCCC1 in the list: GIV-Gai inh: .; Sa growth 42C: 82; Sa growth 42C second temp: 94; HCMV UL50-53 inh: -11
O=c1nc(SCc2ccccc2)c2c(n1CCc1ccccc1)CCC2 in the list: GIV-Gai inh: 106; Sa growth 42C: .; Sa growth 42C second temp: .; HCMV UL50-53 inh: -16
O=C(NC1CCCC1)C1CCCN1C(=O)Nc1ccccc1 (stereo not given) in the list: GIV-Gai inh: 96; Sa growth 42C: 88; Sa growth 42C second temp: 90; HCMV UL50-53 inh: 4

Remaining list, next part
molecule	GIV-Gai inh	Sa growth 42C	Sa growth 42C second temp	HCMV UL50-53 inh
COc1cccc(NC(=O)CC(C)NC2CC(C)(C)NC(C)(C)C2)c1 (stereo not given)	.	84	83	-11
O=C1c2oc3ccccc3c(=O)c2C(c2ccncc2)N1c1nccs1 (stereo not given)	104	95	88	-31
COc1cc(OC)c(NC(=O)c2cccc(-c3noc(C)n3)c2)cc1Cl	101	.	.	-22
COCCNC(=O)CSc1nc2cc3c(cc2c(=O)n1CCCC(=O)NCCc1ccc(OC)c(OC)c1)OCO3	101	107	91	.
COc1ccc(Cc2nc3ccccc3n2Cc2ccccc2C)cc1	100	81	59	3
O=C(Nc1ccc2oc(-c3ccc4ccccc4c3)nc2c1)c1cc(Br)ccc1Cl	103	97	96	-27
Cc1ccc2c(c1)C1CN(C)CCC1N2S(=O)(=O)c1ccc(C#N)cc1 (stereo not given)	.	104	91	-3
O=C1Nc2c(C(F)(F)F)cccc2C12SCCS2	105	112	104	-9
Cc1nn(C(=O)C2CC2)c(C)c1Oc1ccc(Cl)cc1	105	116	102	2
CC(C)n1nnnc1SCC(=O)OC1CCCCC1	106	100	80	-5
CCOc1cc(C=C2C(=O)NC(=O)NC2=O)ccc1OCCOc1ccc([N+](=O)[O-])cc1	104	.	.	-8
CCn1c(-c2ccc3c(c2)OCCO3)cnc1SCC(=O)N1CCc2ccccc2C1	.	80	76	-1
COc1ccc(/C=C2/SC(=O)N(CC(=O)Nc3ccc(F)c(Cl)c3)C2=O)cc1OC	102	.	.	-5
CCCCNC(=O)Cc1ccc(C)cc1	109	108	93	-13
Cc1oc2ncn(CC(C)C)c(=O)c2c1C(=O)NCCc1ccccc1	110	103	90	.
CC(C)Oc1ccc(CNC(=O)c2cnc3sc(N4CCCCCC4)nn3c2=O)cc1	99	96	92	.
C=CCn1c(SC)nc2sc(C)c(C)c2c1=O	101	85	81	.
OC(CNC(=S)Nc1ccccc1)c1ccccc1 (stereo not given)	101	108	107	7
O=C(OCC1CC(c2ccccc2)=NO1)c1cccc(C(=O)OCC2CC(c3ccccc3)=NO2)n1 (stereo not given)	107	102	86	-6
COc1cc(/C=C2\C(=O)NC(=O)N(c3ccc(C)cc3)C2=O)cc(Br)c1O	126	.	.	-32

Among those listed so far, two have a CF3 group:
molecule	GIV-Gai inh	Sa growth 42C	Sa growth 42C second temp	HCMV UL50-53 inh
CN(C)C(=O)c1ccc(OCC(F)(F)F)nc1	104	99	97	5
O=C1Nc2c(C(F)(F)F)cccc2C12SCCS2	105	112	104	-9

(next part)
molecule	GIV-Gai inh	Sa growth 42C	Sa growth 42C second temp	HCMV UL50-53 inh
CCCn1c(N)nc2c1c(=O)[nH]c(=O)n2C	94	112	69	-30
CCC(c1nnnn1Cc1ccccc1)N(Cc1cccs1)Cc1cc2ccc(C)cc2[nH]c1=O (stereo not given)	103	79	103	10
O=S(=O)(c1ccc(-n2cccn2)cc1)N1CC=C(c2ccccc2)CC1	103	.	.	-14
O=c1[nH]c(CSC2=NCCS2)nc2ccccc12	102	96	90	-20
COc1ccc(CN2CCCC(C(=O)Nc3c(C)cccc3C)C2)cc1OC (stereo not given)	102	111	84	5
S=c1[nH]ncc2ccccc12	99	72	74	-26&-65
CCCn1cc(S(=O)(=O)c2cccc(Cl)c2)c(=O)c2cc(F)c(N3CCCC3)cc21	105	118	95	.
COC(=O)c1c(C)[nH]c(C(=O)N2CCC(CC(=O)N3CCN(c4ccccn4)CC3)CC2)c1C	104	.	.	-17
O=S1(=O)C[C@H](N2CCC3(CC2)OCCO3)[C@@H](S(=O)(=O)c2cccs2)C1	97	.	.	-8
CC(C)n1cnnc1SCC(=O)NC(=O)c1ccc(Cl)cc1	.	61	64	0
CCN1c2ccccc2C2=C(C(c3ccccc3)C(C#N)=C(N)O2)S1(=O)=O (stereo not given)	105	109	90	-20
COc1ccc(-c2ccc(SCc3nc(-c4ccccc4)no3)nn2)cc1OC	101	.	.	11
CC(C)(C)c1nnc2n(c1=O)N=C(c1ccc(F)cc1)CS2	112	103	96	-11
O=c1c2ccccc2c(=O)n(Cc2ccccc2)n1Cc1ccccc1	99	86	88	-10
COc1cc(-c2ccno2)ccc1S(=O)(=O)N1CCN(c2ccc(C(C)=O)cc2)CC1	106	137	96	.
O=c1[nH]c(=S)[nH]c(-c2ccccc2)c1Cc1c(O)ccc2ccccc12	105	.	.	-22
CC(Oc1ccccc1F)C(=O)NCC1(N2CCOCC2)CCCCC1 (stereo not given)	101	113	92	3
CCN(CC)S(=O)(=O)c1ccc2[nH]c(=O)cc(C(=O)O)c2c1	.	105	88	-24
CC(NC(=O)c1ccccc1C(=O)NC(C)c1ccc2c(c1)OCCO2)c1ccc2c(c1)OCCO2 (stereo not given)	105	90	96	-25
Cc1cc(C)c(NC(=O)Cn2c(=O)n(CCC(=O)N3CCc4ccccc4C3)c(=O)c3ccccc32)c(C)c1	99	109	97	-11
CCCn1c2ccccc2c2cn[nH]c(=O)c21	99	99	67	-20
CCC(C)NC(=O)CSc1nc2ccsc2c(=O)n1Cc1ccccc1Cl (stereo not given)	100	93	80	-1
Cc1ccc(-c2csc(-c3cccnc3)n2)cc1C	.	91	81	-28
CCCCN(C)C(=O)C1c2ccccc2C(=O)N2CCc3ccccc3C12 (stereo not given)	107	91	93	2
NNC(=O)CCc1ccccc1	.	89	107	0
Cn1cc(S(=O)(=O)N2CCc3ccccc32)cc1C(=O)NC1CCCCCCC1	107	99	87	-18
COc1ccc(C2CC(O)=C(C#N)c3nc4ccccc4n32)cc1 (stereo not given)	.	92	88	-15
CCCc1cc(=O)n2[nH]c(NC(=O)c3ccc(C(C)(C)C)cc3)nc2n1	103	76	73	19
CCCCC(Sc1nc2cc3c(cc2c(=O)n1CCCC(=O)NCc1ccc(OC)cc1)OCO3)C(=O)OCC (stereo not given)	107	98	96	.
Cc1nn(S(=O)(=O)c2ccc(C(C)(C)C)cc2)c(C)c1S(=O)(=O)N1CCCCCC1	102	82	91	.
COC(=O)[C@@H]1CC(O)CN1C(=O)C12CC3CC(CC(C3)C1)C2 (stereo not given in full)	.	99	98	-6
NC(=O)CSc1oc(-c2ccccc2)nc1S(=O)(=O)c1ccccc1	105	110	102	-19
C=CCn1c(N)nc2ccccc21	101	87	80	-27
COC(=O)c1cc2nc(-c3ccccc3)cc(C)n2n1	106&102	102	60	-89
CN(C(=O)CSC(=S)N1CCCC1)c1ccccc1	.	94	79	-11
O=C(NCc1ccccc1Cl)C1CCN(C(=O)N2CCOc3ccccc32)CC1	106	98	93	-24
CCCn1c2ccccc2c2cnn(CC(=O)N3CCN(c4ccccc4F)CC3)c(=O)c21	106	111	98	.
Cc1cccc(N2CCN(C(=O)c3ccc4c(c3)N(Cc3ccccc3)C(=O)c3ccccc3S4(=O)=O)CC2C)c1 (stereo not given)	110	110	94	-32
CCn1c2ccccc2c2cc(/C=C3\Cc4ccccc4C3=O)ccc21	-74*	96	87	.
CC1CCCN(c2c(-c3ccccc3)c(=O)c2=O)C1 (stereo not given)	110	.	.	-63
CCCCOc1ccc(C(=O)Nc2ccc(O)c(-c3nc4ccccc4s3)c2)cc1	112	.	.	-8
COc1ccc(CN2CCN(Cc3ccccc3OC)CC2)c(OC)c1	104	.	.	-4
N#CC1=C(SCC(=O)OCc2ccccc2)NC(=O)CC1c1ccccc1[N+](=O)[O-] (stereo not given)	108	.	.	-42
CCOC(=O)c1cnn2c(N)c(C#N)cnc12	.	109	122	-2
COc1ccc(NS(=O)(=O)c2ccc(Oc3c(C#N)cccc3C#N)cc2)cc1	103	98	68	-18
CC1(C)CC(=O)c2c(-c3cccnc3)n[nH]c2C1	.	91	83	-5
Cc1ccccc1C1NS(=O)(=O)N=C1N (stereo not given)	109	97	92	0
Cc1ccc(C(=O)N2CCN(c3cc(=O)n4nc(-c5ccccc5)sc4n3)CC2)cc1	104	.	.	-11
C=CCn1c(SC(C)C(=O)NC(N)=O)nc2ccccc2c1=O (stereo not given)	.	104	86	-17
CCOC(=O)c1c(C)c(S(=O)(=O)N2CCCCC2)c(C)n1CC	104	.	.	-23
N#CSCC(=O)c1cccs1	.	1.0*	0.0*	-7
Cc1ccc(-c2cc(C(=O)NCCCN(C)C)c3ccccc3n2)cc1	96	.	.	-35
Cc1occc(=O)c1OC(=O)c1ccc(Cl)cc1	.	118	86	-6
Cc1cc(C)nc(NS(=O)(=O)c2ccc(Br)cc2)n1	101	94	87	.
CCN(CC)CCOc1nnc(-c2ccc(C)cc2)c2ccccc12	97	.	.	-24
COc1cccc(NCc2cn(-c3ccccc3)nc2-c2cccs2)c1	107	99	84	.
CCOC(=O)c1cc2c(=O)n3ccccc3nc2n(CC(C)C)c1=NC(=O)COc1ccc(Cl)cc1	100	102	95	-5
C#CC(CC)(CC)Nc1ccsc1C(=O)O	100	89	88	-10
CCCNC(=O)Cn1c2ccccc2c2nc(=O)cc(C)n21	102	86	84	.
CCOC(=O)c1sc(-n2[nH]c(C)c(Cc3ccc(C)cc3)c2=O)nc1C	103	.	.	4

(list continues)
molecule	GIV-Gai inh	Sa growth 42C	Sa growth 42C second temp	HCMV UL50-53 inh
CC1CCN(S(=O)(=O)c2ccc3c(c2)oc(=O)n3CC(=O)O)CC1	101	101	97	.
Cc1ccccc1C1CCCN1C(=O)c1c(C)noc1C (stereo not given)	108	.	.	-30
CCOC(=O)C1CCN(c2c(C(=O)c3ccccc3)cnc3ccc(Cl)cc23)CC1	104	.	.	23
O=C(Cc1coc2cc3c(cc12)CCC3)NCCNc1ncc(C(F)(F)F)cc1Cl	.	81	95	-4
CC(=O)c1ccc(NC(=O)CN2C(=O)c3cccnc3Sc3ccccc32)cc1	110	108	97	.
Cc1ccccc1C=Nc1ccccc1C#N	.	95	82	-9
CC(=O)NCCC(=O)N1CCN(S(=O)(=O)c2ccc(C(C)C)cc2)CC1	.	97	97	-7
